Measles inh – inhibitors of measles virus growth in infected cells; z-score (concentration not given with the values); infected Vero cells, GFP fluorescence, 64 h; hits give low values; AID 745; hit rate 0.1% among 33,000;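 active = z-score under -3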;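 also: score is relative to mean and SD of the compound wells of a plate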
The depositor's hits bear a star. A portion of the library; count on the stated rates, not on these rows.

Start of the data: the first two entries (preview)
How did COc1ccc(C2N(c3ccccc3)CCN2c2ccccc2)cc1 do in these assays?
Measles inh: 0.73

What do the screens show for `O=C(Nc1ccc2c(c1)OC(F)(F)O2)c1ccc(Cl)c([N+](=O)[O-])c1`?
Measles inh: 0.87

The whole of this part, repeating the preview:
How did COc1ccc(C2N(c3ccccc3)CCN2c2ccccc2)cc1 do in these assays?
Measles inh: 0.73

What do the screens show for `O=C(Nc1ccc2c(c1)OC(F)(F)O2)c1ccc(Cl)c([N+](=O)[O-])c1`?
Measles inh: 0.87

Results for NC(=O)c1c(NC(=O)c2ccc(Br)cc2)sc2c1CCCC2 ?
Measles inh: 2.73

What do the screens show for `Cc1ccc2c(c1)N(CC(=O)NC1CCC(C)CC1)C(=O)CO2` (stereo not drawn)?
Measles inh: -0.34

Results for Cc1ccc(CNC(=O)c2cc(Nc3ccccc3)nc3ccccc23)cc1 ?
Measles inh: -1.92

What do the screens show for `Cc1ccc(S(=O)(=O)N(CC(=O)N2CCN(Cc3ccccc3)CC2)c2ccccc2F)cc1`?
Measles inh: 0.7

Results for O=C1CSC(c2cccc([N+](=O)[O-])c2)N1c1ccc(Oc2ccc(Cl)cc2)cc1 (stereo not drawn) ?
Measles inh: -0.39

How did O=C(O)CSc1nc2c(cnn2-c2ccc(Cl)cc2)c(=O)[nH]1 do in these assays?
Measles inh: -1.37

What do the screens show for `Cc1nc(S(=O)(=O)NCc2ccccc2Cl)c(C#N)c(C)c1Cl`?
Measles inh: -0.05

How did Cc1ccc(CNC(=O)c2ccc(Cn3c(=S)[nH]c4cc5c(cc4c3=O)OCO5)cc2)o1 do in these assays?
Measles inh: -1.12

What do the screens show for `CN(C)CCNC(=O)Cn1cnc2sc3c(c2c1=O)CCCC3`?
Measles inh: -0.98

How did COc1cccc(C2NC(CC(C)C)(C(=O)O)C3C(=O)N(Cc4ccccc4)C(=O)C23)c1O (stereo not drawn) do in these assays?
Measles inh: 0.51

How did N#Cc1c(I)nc2c(c1C#N)CCCCCCCCCC2 do in these assays?
Measles inh: 0.32

How did COc1ccc(Cn2c(=O)[nH]c3cc(C(=O)NC4CCCCC4)ccc3c2=O)cc1 do in these assays?
Measles inh: -0.81

Results for Cc1ccc(CNC(=O)c2ccc(NCC3CCCO3)c([N+](=O)[O-])c2)cc1 (stereo not drawn) ?
Measles inh: 0.05

What do the screens show for `O=C(Cn1c(=O)c2sccc2n(Cc2ccc(Cl)cc2)c1=O)NCc1ccco1`?
Measles inh: -0.13

How did CCCCOC(=O)C1=C(C)NC2=C(C(=O)CCC2)C1c1ccc(OC)c(OC)c1OC (stereo not drawn) do in these assays?
Measles inh: -0.41

Results for O=c1c2cnn(-c3ccccc3)c2nc(-c2cccs2)n1-c1ccc(Cl)cc1 ?
Measles inh: -0.17

How did N#CCSc1nc2[nH]ncc2c(=O)n1-c1cccc(C(F)(F)F)c1 do in these assays?
Measles inh: 2.29

Results for Cc1c(NC(=O)COc2ccc(Oc3ccccc3)cc2)c(=O)n(-c2ccccc2)n1C ?
Measles inh: -0.85

The final seven records of the section above come first, to join the parts.
How did COc1ccc(Cn2c(=O)[nH]c3cc(C(=O)NC4CCCCC4)ccc3c2=O)cc1 do in these assays?
Measles inh: -0.81

Results for Cc1ccc(CNC(=O)c2ccc(NCC3CCCO3)c([N+](=O)[O-])c2)cc1 (stereo not drawn) ?
Measles inh: 0.05

What do the screens show for `O=C(Cn1c(=O)c2sccc2n(Cc2ccc(Cl)cc2)c1=O)NCc1ccco1`?
Measles inh: -0.13

How did CCCCOC(=O)C1=C(C)NC2=C(C(=O)CCC2)C1c1ccc(OC)c(OC)c1OC (stereo not drawn) do in these assays?
Measles inh: -0.41

Results for O=c1c2cnn(-c3ccccc3)c2nc(-c2cccs2)n1-c1ccc(Cl)cc1 ?
Measles inh: -0.17

How did N#CCSc1nc2[nH]ncc2c(=O)n1-c1cccc(C(F)(F)F)c1 do in these assays?
Measles inh: 2.29

Results for Cc1c(NC(=O)COc2ccc(Oc3ccccc3)cc2)c(=O)n(-c2ccccc2)n1C ?
Measles inh: -0.85

Results for C=CCOC(=O)C1=C(C)Nc2ncnn2C1c1cccc(F)c1 (stereo not drawn) ?
Measles inh: -0.46

Results for CC(C)c1ccc(C2CC(=O)Nc3cc4c(cc32)OCCO4)cc1 (stereo not drawn) ?
Measles inh: -0.73

What do the screens show for `Cc1ccc(OCC(=O)NCc2ccncc2)cc1`?
Measles inh: -0.19

How did COc1ccc(C(=O)NC(C=Cc2ccccc2)c2cc(Cl)c3cccnc3c2O)cc1 (stereo not drawn) do in these assays?
Measles inh: -1.1

Results for O=C(Nc1ccc2snnc2c1)N1CCCC1 ?
Measles inh: 0.41

Results for CC(C)c1ccc(NC(=O)c2ccc(NC3CCCC(C)C3C)c([N+](=O)[O-])c2)cc1 (stereo not drawn) ?
Measles inh: -0.26

How did CC12CS(=O)(=O)CC1SC(=S)N2Cc1ccccc1 (stereo not drawn) do in these assays?
Measles inh: -2.88

What do the screens show for `CCOC(=O)C1=C(C)N(c2ccc(OC)cc2)C(C)=C(C(=O)OCC)C1c1cccc([N+](=O)[O-])c1`?
Measles inh: 0.93

What do the screens show for `COc1ccc(-c2noc(-c3cccc([N+](=O)[O-])c3)n2)cc1OC`?
Measles inh: -0.71

Results for Oc1ccccc1-c1nc2ccccn2c1Nc1ccc2c(c1)OCCO2 ?
Measles inh: -0.72

Results for CC1(C(=O)O)NC(c2ccccc2O)C2C(=O)N(c3cccc4ccccc34)C(=O)C21 (stereo not drawn) ?
Measles inh: 0.79

What do the screens show for `O=C(O)CCNS(=O)(=O)c1ccc(Oc2ccccc2Cl)cc1`?
Measles inh: 0.44

How did COc1ccc(CN2C(=O)CC(C(=O)Nc3ccc(C(=O)O)cc3)SC2=Nc2ccc(Cl)cc2)cc1 (stereo not drawn) do in these assays?
Measles inh: -0.49

Results for c1ccc(CNc2ncnc3c2sc2nc(-c4ccco4)c4c(c23)CCCC4)cc1 ?
Measles inh: 1.47

What do the screens show for `CC(=O)OCCN1C(=O)c2ccc([N+](=O)[O-])cc2C1=O`?
Measles inh: 1.66

What do the screens show for `O=C(C1c2ccccc2Oc2ccccc21)N1CCN(c2cccc(Cl)c2)CC1`?
Measles inh: 1.82

What do the screens show for `CCCNC(=O)Cn1cnc2sc(C(=O)N3CCN(CCC)CC3)c(C)c2c1=O`?
Measles inh: -0.32

Results for CCSCCOC(=O)C1=C(C)NC2=C(C(=O)C(C(=O)OC)C(C)C2)C1c1ccc2ccccc2c1 (stereo not drawn) ?
Measles inh: -0.79

Results for CC(=O)c1ccc(NC(=NS(=O)(=O)c2ccc(C)cc2)c2ccc(Cl)cc2)cc1 ?
Measles inh: -0.38

Results for COC(=O)C1=NNC2C(=O)N(c3ccc(Br)cc3)C(=O)C12 (stereo not drawn) ?
Measles inh: 0.64

Results for CC(=O)NCCCc1nc2ccccc2n1CC(C)C ?
Measles inh: -0.04

What do the screens show for `COc1ccc(Br)cc1C1NC(=O)CCC1[N+](=O)[O-]` (stereo not drawn)?
Measles inh: -1.27

What do the screens show for `Cc1ccc(NC(=O)c2cccc(C(=O)Nc3ccc(C)cc3[N+](=O)[O-])n2)c([N+](=O)[O-])c1`?
Measles inh: -0.11

How did CCOc1ccc2cc(C(N)=O)c(=Nc3cccc(C)c3)oc2c1 do in these assays?
Measles inh: -0.48

Results for N#Cc1cc(N2CCOCC2)cc2ccccc12 ?
Measles inh: -1.33

What do the screens show for `CCCNS(=O)(=O)c1ccc(OC)c(OC)c1`?
Measles inh: 0.17

How did CC(=O)c1cccc(NC(=O)c2cc3nc4c(c(C(F)(F)F)n3n2)CCc2ccccc2-4)c1 do in these assays?
Measles inh: -0.28

How did Cc1cccc(C(=O)Nc2ccc(-c3nc4cc(C(C)(C)C)ccc4o3)cc2)c1 do in these assays?
Measles inh: -0.77

Results for Cc1sc(NS(=O)(=O)c2ccc([N+](=O)[O-])cc2)nc1-c1ccc(-c2ccccc2)cc1 ?
Measles inh: 0.85

How did COCCn1cnc2sc(C(=O)NCc3ccccc3OC)c(C)c2c1=O do in these assays?
Measles inh: -0.31

How did Cc1ccc(C2CC(=O)C3=C(C2)Nc2ccccc2NC3c2ccc(Br)cc2)cc1 (stereo not drawn) do in these assays?
Measles inh: -0.61

How did CC1CCN(CCCNC(=O)Cn2c(=O)[nH]c3ccccc3c2=O)CC1 do in these assays?
Measles inh: 1.1

Results for O=C1C2C(c3ccc(F)cc3)OC3(C(=O)c4ccccc4C3=O)C2C(=O)N1Cc1ccccc1 (stereo not drawn) ?
Measles inh: -0.18

Results for Cc1ccc(C(=O)C(C)OC(=O)CCN2C(=O)C3C4C=CC(C5CC45)C3C2=O)cc1 (stereo not drawn) ?
Measles inh: -0.57

How did CCCCCC1CCC(c2ccc(C#N)c(Cl)n2)CC1 (stereo not drawn) do in these assays?
Measles inh: -0.7

How did O=C(O)c1ccc(NCc2ccc(Cl)cc2)cc1 do in these assays?
Measles inh: -1.11

Results for Cc1ccc(S(=O)(=O)CCC(=O)Nc2cc(Cl)ccc2C)cc1 ?
Measles inh: 1.01

What do the screens show for `CCCCCCCOC(=O)C1=C(C)Nc2nnnn2C1c1ccc(F)cc1` (stereo not drawn)?
Measles inh: -0.04

What do the screens show for `CCCCC(=O)N1c2ccccc2NC2=C(C(=O)CCC2)C1c1ccc(N(C)C)cc1` (stereo not drawn)?
Measles inh: 1.04

What do the screens show for `O=C1CCCC2=C1C(c1ccc(C(F)(F)F)cc1)Nc1ccc(C(=O)c3ccccc3)cc1N2` (stereo not drawn)?
Measles inh: 1.07

Looked up one by one from above:
What do the screens show for `CCCCCCCOC(=O)C1=C(C)Nc2nnnn2C1c1ccc(F)cc1` (stereo not drawn)?
Measles inh: -0.04

How did CCOc1ccc2cc(C(N)=O)c(=Nc3cccc(C)c3)oc2c1 do in these assays?
Measles inh: -0.48

Results for O=C1C2C(c3ccc(F)cc3)OC3(C(=O)c4ccccc4C3=O)C2C(=O)N1Cc1ccccc1 (stereo not drawn) ?
Measles inh: -0.18

Later entries:
Results for CCOC(=O)C1=C(C)Nc2nc(SCc3cccc(C)c3)nn2C1c1ccc([N+](=O)[O-])cc1 (stereo not drawn) ?
Measles inh: 0.89

How did Cc1c(Cl)c(C)c([N+](=O)[O-])c(O)c1C=Nc1ccc(Br)cc1C(=O)O do in these assays?
Measles inh: 0.9

What do the screens show for `Cc1sc2c(c1C)c(=O)n(Cc1ccccc1)c(=O)n2Cc1ccccc1Cl`?
Measles inh: -0.06

Results for c1ccc(CNCc2ccco2)nc1 ?
Measles inh: -0.44

What do the screens show for `COc1cc(OC)c(NC(=O)c2sc3nc(C)nc(N4CCC(C)CC4)c3c2C)cc1Cl`?
Measles inh: 2.13

Results for CCc1c(C)c(C#N)c2nc3ccccc3n2c1N1CCN(S(=O)(=O)c2ccc(F)cc2)CC1 ?
Measles inh: -0.64

What do the screens show for `COc1ccc(-n2c(SCC(=O)Nc3ccccc3)nc3c([nH]c4ccccc43)c2=O)cc1`?
Measles inh: 0.6

Results for CCn1c(SCCc2ccccc2)nc2ccccc2c1=O ?
Measles inh: -0.95

What do the screens show for `Cc1ccnc(SC2CC(=O)N(c3ccc(Br)cc3)C2=O)n1` (stereo not drawn)?
Measles inh: 0.34

How did OCCc1cn(-c2ccccc2)c2ccccc12 do in these assays?
Measles inh: -0.02

Results for COc1ccc(CCN2C(=O)CC(C(=O)Nc3ccc(I)cc3)SC2=Nc2ccc(F)cc2)cc1OC (stereo not drawn) ?
Measles inh: -1.48

What do the screens show for `O=C1CCCC2=C1C(c1ccc(Cl)cc1)c1c(nc(SCc3ccccc3)[nH]c1=O)N2` (stereo not drawn)?
Measles inh: -0.95

What do the screens show for `CCc1cc2c(s1)SC(c1ccc([N+](=O)[O-])cc1)NC2=O` (stereo not drawn)?
Measles inh: -1.46

How did Cc1nn(-c2ccccc2)c(OC(=O)c2ccc([N+](=O)[O-])cc2)c1Sc1ccccc1 do in these assays?
Measles inh: -0.82

Results for COc1ccc(C2C(C(=O)Nc3cc(Cl)c(OC)cc3OC)c3ccccc3C(=O)N2C2CCCCC2)cc1 (stereo not drawn) ?
Measles inh: -0.25

What do the screens show for `COc1ccc(N2C(=O)C(N3C(=O)c4ccc([N+](=O)[O-])cc4C3=O)C2c2ccc3c(c2)OCO3)cc1Cl` (stereo not drawn)?
Measles inh: 0.83

What do the screens show for `CCC(=O)N1c2ccc(S(=O)(=O)CCC(=O)Nc3cccc(SC)c3)cc2CC1C` (stereo not drawn)?
Measles inh: -0.94

Results for CC1CN(C2CCN(C(=O)c3ccccc3)CC2)CC(C)O1 (stereo not drawn) ?
Measles inh: 0.44

What do the screens show for `NC(=O)c1cc2cc(Br)ccc2oc1=Nc1ccc(C(=O)c2ccccc2)cc1`?
Measles inh: -0.35

What do the screens show for `CCOC(=O)c1cnc2cc(Cl)c(OC)cc2c1Nc1ccc(OC)c(Cl)c1`?
Measles inh: 0.52

What do the screens show for `COC(=O)c1cc(NC(=O)c2ccc(SC3CCCCC3)c([N+](=O)[O-])c2)cc(C(=O)OC)c1`?
Measles inh: -0.47

How did CCS(=O)(=O)N1CCN(Cc2cc(Br)ccc2O)CC1 do in these assays?
Measles inh: 0

Results for O=C(Nc1cccc2ccccc12)C1CCC(Cn2c(=S)[nH]c3ccccc3c2=O)CC1 (stereo not drawn) ?
Measles inh: 1.38

Results for C1CSC2(N1)C1CC3CC(C1)CC2C3 (stereo not drawn) ?
Measles inh: -0.92

Results for Cc1ccc(C)n1-c1ccc(C(=O)NCC2CCCO2)cc1 (stereo not drawn) ?
Measles inh: -2.39

Results for Cc1ccccc1CS(=O)(=O)CCC(=O)N1CCc2ccccc2C1 ?
Measles inh: -0.26

What do the screens show for `CC(C)Cc1nc(S(=O)(=O)c2ccccc2)c(N2CCOCC2)o1`?
Measles inh: -0.55

Results for CCOC(=O)C1=C(C)NC2=C(C(=O)C(C(=O)OCC)C(c3ccc(OC)cc3)C2)C1c1cccc([N+](=O)[O-])c1 (stereo not drawn) ?
Measles inh: -0.37

How did COc1ccc(NC(=O)c2sc(=S)n(-c3ccc(Cl)c(C)c3)c2N)cc1 do in these assays?
Measles inh: -1.75

Results for O=C(Nc1ccc(Cl)c(-c2nc3ccccc3s2)c1)c1ccc(F)cc1 ?
Measles inh: -0.33

Results for O=C1CN(C(=O)C2CCCC2)C(c2ccccc2)c2cc(Cl)ccc2N1 (stereo not drawn) ?
Measles inh: 0.8

How did C#CC(C)(C)NC(=O)CCC(=O)OCC do in these assays?
Measles inh: 1
